FGF22 binding = shifts melting point of recombinant human FGF22; Q9HCT0; recombinant FGF22 thermal shift, SYPRO orange fluorescence; percent of sucrose octasulfate shift, DMSO zero; calls only at 9.99 µM; 340,000 compounds, 1.5% hits;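 active = melting point raised past a set limit in the mean and every replicate; inconclusive = no clear call; three in four hits are not shown here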
HNF4A DNA FP = change in binding of human HNF4 alpha to DNA. HNF4a-FITC DNA binding, fluorescence polarization, 1 h. activity change, % at 10 µM. 360,000 compounds, 0.3% hits. AID 1224865; in the data active = activity change above about 30%, passing the limit was not always enough;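 note: controls were the assay level and a saturating level of protein; the project sought stronger binding though the title names inhibitors; some compounds called inactive have numbers as strong as hits; positive values seem to mean higher polarization but the record does not say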
Target sequence (P41235 whole entry, looked up): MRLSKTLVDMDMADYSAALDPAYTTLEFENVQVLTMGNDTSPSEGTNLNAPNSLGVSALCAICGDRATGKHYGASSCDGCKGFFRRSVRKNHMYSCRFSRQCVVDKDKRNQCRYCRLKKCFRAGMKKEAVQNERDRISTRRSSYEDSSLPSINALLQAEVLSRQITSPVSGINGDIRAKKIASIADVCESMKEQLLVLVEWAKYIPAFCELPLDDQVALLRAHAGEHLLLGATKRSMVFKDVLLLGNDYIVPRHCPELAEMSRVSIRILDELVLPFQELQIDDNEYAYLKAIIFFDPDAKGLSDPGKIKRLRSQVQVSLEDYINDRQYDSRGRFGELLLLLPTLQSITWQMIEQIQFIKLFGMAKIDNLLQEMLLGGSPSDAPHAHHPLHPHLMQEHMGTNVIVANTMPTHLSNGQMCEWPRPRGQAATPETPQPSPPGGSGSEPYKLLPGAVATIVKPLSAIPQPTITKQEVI
ALR inh = inhibitors of human sulfhydryl oxidase ALR | P55789 | purified ALR, DTT oxidation, H2O2 HRP-luminol luminescence | inhibition, % (test concentration not listed) | 290,000 compounds, 3.8% hits | AID 485317;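 active = mean and each replicate at 75% or more; inconclusive = only one of the two met; inactive = neither met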;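 note: stock transfer was 7.5 nL into about 7.5 µL; 0% = neutral wells and 100% = wells with inactivated enzyme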
Target sequence (P55789 whole entry, looked up): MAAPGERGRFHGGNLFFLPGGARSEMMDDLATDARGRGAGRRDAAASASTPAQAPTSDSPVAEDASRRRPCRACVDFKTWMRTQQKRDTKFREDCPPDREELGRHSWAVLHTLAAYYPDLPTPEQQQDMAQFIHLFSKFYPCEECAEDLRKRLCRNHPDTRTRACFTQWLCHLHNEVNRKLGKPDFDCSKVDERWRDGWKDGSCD
Beta2AR agonist = agonists of human beta-2 adrenergic receptor inducing internalization; P07550; Am2.2-beta2AR cells, FAP receptor internalization, flow cytometry; reference of the scale not given here; response, % (concentration not given with the values); 340,000 compounds, 0.43% hits;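 active = response above a set limit, near 3 SD of response in nonfluorescent compounds, cut at about 42% in these data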;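 note: stock transfer was 100 nL into about 11 µL; a reference agonist was the positive control; negative values mostly stem from fluorescent compounds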
Ecoli growth = blocks Escherichia coli growth; OD600, 23 h; hits give low values; OD600 absorbance (test concentration not listed); 330,000 compounds, 0.21% hits; AID 1053175;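 active = OD600 absorbance below the run mean of sample wells minus 3.6 SD, in any replicate, cut at about 0.56 in these data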;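 note: stock transfer was 300 nL into about 60 µL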
UCH37 DUB inh = blocks the human deubiquitinase UCH37; 330,000 compounds, 0.33% hits; AID 588478; inhibition, % (test concentration not listed); purified proteasome/UCH37, Ub-AMC cleavage fluorescence; Q9Y5K5;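 active = mean of two replicates above 20%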;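 note: 0% = compound-free wells with enzyme and 100% = wells lacking proteasome; stock transfer was 100 nL into about 20 µL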
Target sequence (Q9Y5K5 whole entry, looked up): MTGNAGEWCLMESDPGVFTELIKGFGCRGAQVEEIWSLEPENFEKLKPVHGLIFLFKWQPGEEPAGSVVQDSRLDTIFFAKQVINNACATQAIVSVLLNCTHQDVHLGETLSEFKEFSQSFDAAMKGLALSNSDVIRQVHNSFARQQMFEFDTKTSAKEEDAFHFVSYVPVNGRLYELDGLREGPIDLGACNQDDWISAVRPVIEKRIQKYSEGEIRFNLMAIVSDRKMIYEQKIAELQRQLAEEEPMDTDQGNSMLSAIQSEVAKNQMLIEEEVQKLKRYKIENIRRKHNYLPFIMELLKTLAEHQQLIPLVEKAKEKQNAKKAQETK
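Reagent: Ub-AMC substrate; assay system: Proteasome-associated human UCH37 deubiquitinase; controls: no-proteasome and no-compound wells; read-out: % inhibition of Ub-AMC cleavage fluorescence; timing: 30 min preincubation with enzyme, 25 min cleavage at room temperature; signal: AMC fluorescence from Ub-AMC cleavage, excitation 355 nm, emission 460 nm; buffer or medium: Tris-HCl pH 7.4 plus ovalbumin, ATP-MgCl2, DTT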
Ecoli rRNA inh = inhibitors of bacterial rRNA selective over humanized ribosomes. 350,000 compounds, 1.6% hits. GFP signal change (wild-type ribosome), % (test concentration not listed). E. coli WT GFP vs humanized-ribosome RFP mutants, fluorescence, 24 h; hits give low values; DMSO median 0, no signal -100;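 active = significant combined selectivity score with lowered wild-type GFP, culture density cut under 30%, mutant RFP and density less affected; inactive = any of these conditions unmet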; note: one replicate is shown; some compounds called inactive have numbers as strong as hits
Ecoli rRNA inh OD600 = also measured in Ecoli rRNA inh; calls as there; OD600 change, %; measured here: OD600 growth;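 optical density of the mix in the first replicate; 0 = DMSO median and -100 = no signal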
Ecoli rRNA inh RFP = further read-out of Ecoli rRNA inh, marked with its call; RFP signal change, %; measured here: RFP humanized mutant strains;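 first replicate; 0 = DMSO median and -100 = no signal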
* hit, by the source's call; i = inactive; ? = inconclusive; · = not tested or not shown; & = joins results of further samples.

SMILES	FGF22 binding	HNF4A DNA FP	ALR inh	Beta2AR agonist	Ecoli growth	UCH37 DUB inh	Ecoli rRNA inh	Ecoli rRNA inh OD600	Ecoli rRNA inh RFP
CCCC(=O)Nc1nc(-c2ccc3c(c2)OCCO3)cs1	i	3.2	·	-15	0.69	4.7	-19	-41	-3.0
O=C(O)c1ccc(N2C(=O)CCCC2=O)cc1	i	1.5	·	1	0.73	0.1	11	-1	1.0
Cc1c(NS(C)(=O)=O)cccc1-c1nc2cccnc2s1	i	4.0	-13	-22	0.64	-3.2	-4	-4	-3.4
Cc1ccc(NC(=O)Cn2cc(C(F)(F)F)cc(Cl)c2=O)cc1Cl	i	-0.3	-2	3	0.71	-1.4	18	19	2.8
OCCNC(=S)Nc1ccc2c(c1)OCCO2	i	0.9	-27	-5	0.68	2.6	16	-15	-3.9
COc1ccc(C(=O)NC(C)c2nc3ccccc3[nH]2)cc1OC (stereo not drawn)	i	-1.8	·	13	0.67	-0.3	-10	-14	-13
O=C(COn1nnc2ccc(C(F)(F)F)cc21)Nc1c(Cl)cccc1Cl	i	6.5	4	-9	0.74	3.6	-25*	-12*	0.0*
Cc1cccc(/C(N)=N/OC(=O)COc2ccc(Cl)c(C)c2)c1	i	0.1	-3	2	0.7	2.2	10	7	-0.6
COc1cccc(NC(=O)CN2C(=O)C(=O)N(C3CCCC3)C2=O)c1	i	0.6	1	1	0.66	2.1	-4	0	-0.2
CCOc1c(Cl)cc(/C=C/C(=O)N(CC)CC(=O)Nc2ccc(NC(C)=O)cc2)cc1OC	i	3.0	·	-2	·	·	1	10	-1.0
CCCCOc1cc(C(=O)NCCN(CC)CC)c2ccccc2n1	i	-0.5&2.2	2	-12&-2	0.69&0.71	-4.0&-5.4	3	6	6.0
COc1cccc(NC(=O)C2CCCO2)c1 (stereo not drawn)	i	2.2	·	-121	0.64	3.7	18	12	1.8
CCS(=O)(=O)n1nc(-c2ccccc2)nc1NCc1ccco1	·	-1.1	13	4	0.73	1.8	·	·	·
Cc1ccc(-n2cc(CNC(C)c3cnn(C)c3C)c(-c3ccc(F)cc3)n2)cc1 (stereo not drawn)	i	1.9	2	-24	0.67	7.8	-3	-5	-7.9
Cc1cc2nc(-c3ccccn3)c(-c3ccccn3)nc2cc1C	i	-0.8	·	-6	·	·	8	9	-0.1
CCOC(=O)c1cc2c(ccn2C)n1CC(=O)N(Cc1ccccc1)c1ccc(F)cc1	·	-3.0	0	-4	0.72	-0.9	·	·	·
CCNc1ccc(P(=O)(c2ccccc2)c2ccccc2)cc1	i	-2.9	28	6	0.69	4.0	-3	-6	-0.3
CC(C)C1OC2c3cccc4cccc(c34)C2N1c1ccccc1 (stereo not drawn)	·	0.7	-48	-7	0.71	3.3	·	·	·
CCn1c(O)c(/C=C/C=C/C=Nc2ccccc2)sc1=S	i	18	-11	6	0.74	3.8	9	5	5.5
Nc1nc(-c2ccc(Br)cc2)cc(C(F)(F)F)n1	·	1.8	-9	4	0.77	-2.4	·	·	·
COc1ccccc1/C=C/C=N\N1CCN(Cc2ccccc2Cl)CC1	·	0.0	-2	-3	·	·	·	·	·
COc1ccccc1N1CCN(S(=O)(=O)c2c(C)sc3ncn(CC(=O)NCCN(C)C)c(=O)c23)CC1	i	2.0	3	-7	0.67	0.6	-9	-12	6.7
COc1cc(C(=O)NCC(=O)N/N=C\C(C)=C/c2ccccc2)cc(OC)c1OC	i	1.4	-8	16	·	·	-7	-12	2.4
CCOc1ccc(CCNC(=O)c2ccc(C)c(NC3=NC4CS(=O)(=O)CC4S3)c2)cc1 (stereo not drawn)	i	-4.3	1	4	0.68	-0.1	6	8	-1.9
O=c1c(Cc2ccc(F)cc2)c(O)ccn1CC1CCCO1 (stereo not drawn)	i	-1.8	-1	13	0.64	3.2	18	10	-1.8
O=C1NCCCc2c1no[n+]2[O-]	·	4.8	-1	2	0.71	4.0	·	·	·
Cc1cccc(NC(=O)CSc2nc(C)c(Cc3ccccc3)c(=O)[nH]2)c1	·	-3.2	-3	-4	0.69	2.4	-3	4	-1.7
Cc1cc(=O)n2c3c(cccc13)CCC2	·	2.1	0	-3	0.72	2.6	·	·	·
COc1ccc(NC(=S)N(CCC(C)C)C2CCN(C(C)C)CC2)cc1	i	3.3	-8	-4	0.67	4.0	12	17	2.1
CCN1CCCCC(=N/O)/C(=N/O)CCCC1	i	-1.0	-4	-18	·	·	4	3	-1.8

Ordered by formula weight (descending): some entries from above.
SMILES	FGF22 binding	HNF4A DNA FP	ALR inh	Beta2AR agonist	Ecoli growth	UCH37 DUB inh	Ecoli rRNA inh	Ecoli rRNA inh OD600	Ecoli rRNA inh RFP
CCOC(=O)c1cc2c(ccn2C)n1CC(=O)N(Cc1ccccc1)c1ccc(F)cc1	·	-3.0	0	-4	0.72	-0.9	·	·	·
COc1ccccc1/C=C/C=N\N1CCN(Cc2ccccc2Cl)CC1	·	0.0	-2	-3	·	·	·	·	·
Nc1nc(-c2ccc(Br)cc2)cc(C(F)(F)F)n1	·	1.8	-9	4	0.77	-2.4	·	·	·
Cc1cc(=O)n2c3c(cccc13)CCC2	·	2.1	0	-3	0.72	2.6	·	·	·

(continued)
SMILES	FGF22 binding	HNF4A DNA FP	ALR inh	Beta2AR agonist	Ecoli growth	UCH37 DUB inh	Ecoli rRNA inh	Ecoli rRNA inh OD600	Ecoli rRNA inh RFP
CC1CCN(C(=O)CSc2ccc(-c3cccc([N+](=O)[O-])c3)nn2)CC1	·	-1.4	30	-9	0.71	4.7	5	9	-4.0
COC(=O)CSc1ncc(S(=O)(=O)c2ccccc2)c(=O)[nH]1	i	1.1	·	-8	0.7	2.2	4	8	-0.2
CCCCc1nnc(NC(=O)CC(=O)Nc2ccccc2C(=O)O)s1	·	-0.5	5	4	0.71	-0.5	·	·	·
Cc1c(NC(=O)CSc2ccc(Cl)cc2)cccc1-c1nc2cc(Cl)ccc2o1	i	8.0	-2	0	·	·	7	9	4.1
CCCCC[C@@H](C)N1C[C@@H](COCc2ccccc2)Oc2cc(N3CC[C@H](N(C)C)C3)ccc2S1(=O)=O	i	0.7	·	·	·	·	-15	-41	7.3
Cn1c(SCc2ccc(C(=O)Nc3nccs3)cc2)nnc1-c1ccccc1	·	2.7	39	-7	0.66	-2.5	·	·	·
Cc1ccc(OCc2n[nH]c(=S)n2-c2ccccc2)cc1C	i	-0.4	?	-6	0.68	0.8	-23	-22	4.1
CC(=O)C[C@@H](O)CC(=O)[C@@H]1OC(=O)CCCCCc2ccccc21	i	0.4	·	-6	0.7	1.4	·	·	·
Nc1nc(N)nc(COc2ccccc2)n1	i	-0.7	-3	3	0.69	-0.8	19	18	1.4
CCNC(=S)N1CCC(n2cnc3ccccc32)CC1	i	4.0	0	-6	0.67	1.1	5	7	-2.6
Cc1cccc(C)c1NC(=O)CN(C)CC(=O)Nc1sc2c(c1C(N)=O)CCC2	i	3.1	·	-3	0.66	2.1	-4	-7	1.4
CC(C)n1nnnc1SCC(=O)Nc1cccc(F)c1	i	3.5	·	2	0.7	2.5	3	9	0.6
O=C(O)c1oc2ccccc2c1CSc1ccccn1	·	3.1	30	-7	0.7	4.5	·	·	·
CSCC[C@H](NC(=O)[C@@H]1Cc2ccccc2CN1)C(=O)NC(C)c1ccccc1 (stereo partly drawn)	i	1.7	-3	-3	0.68	2.6	14	9	5.6
O=C(OCc1cccc([N+](=O)[O-])c1)c1ccc2ccccc2n1	i	-1.1	-1	1	0.7	3.1	17	12	1.3
Cn1c(N)c(C(=O)c2cc(-c3ccccn3)nc3ccccc23)c(=O)[nH]c1=O	·	5.3	·	3	0.66	2.3	·	·	·
CCOc1ccc(S(=O)(=O)Nc2ccc3c(c2)OCO3)c2cccnc12	·	4.5	9	33	0.73	1.2	·	·	·
O=C(/C=C/c1ccccc1[N+](=O)[O-])Nc1ccc(S(=O)(=O)Nc2ncccn2)cc1	i	0.7	3	4	0.73	6.4	·	·	·
O=C(NNC(=O)c1n[nH]c(=O)c2ccccc12)c1ccc(Br)cc1	i	-4.1	3	7	0.68	5.9	6	3	-3.9
CCN(CC(=O)Nc1ccccc1Br)Cc1nc2ccccc2c(=O)[nH]1	·	2.6	·	-4	0.66	2.1	·	·	·
CC(C)(C)c1ccc(N2C(=O)CSC2c2cccnc2)cc1 (stereo not drawn)	i	-1.5	·	0	0.65	4.2	-19*	-6.8*	3.7*
CCOc1nc(Nc2ccc(OC)c(Cl)c2)nc(OCC)n1	·	-3.0	-16	1	0.72	0.2	·	·	·
O=C(O)CCN1C(=O)C2C3CC(C2C1=O)C1C(c2ccccc2)c2sc(=O)n(-c4ccccc4)c2SC31 (stereo not drawn)	i	0.9	24	2	0.68	2.4	5	-6	-4.4
CN1C(=O)C(=O)N(c2cccc(C(F)(F)F)c2)C1=O	i	1.9	1	-6	0.68	5.7	15	4	0.1
CN1CCN(c2cc(=O)n(C3CCCCC3)c(=O)[nH]2)CC1	i	-0.3	49	7	0.78	0.2	·	·	·
CC(=O)c1cc(C#N)c(SCc2ccc([N+](=O)[O-])cc2)nc1C	i	-0.7	-1	6	0.73	1.0	19	21	1.4
O=S(=O)(c1cccc2ccccc12)n1nnc2ccccc21	·	·	-4	·	0.67	0.4	·	·	·
Cn1ccnc1SCC(=O)Nc1ccc(F)c([N+](=O)[O-])c1	i	-3.5	-11	-4	0.68	4.7	9	3	-2.5
O=C(O)/C=C/C(O)c1ccc(Cl)cc1 (stereo not drawn)	i	0.6	3	-3	·	·	-2	8	-0.8
O=C(Nc1cccc(C(=O)N2CCOCC2)c1)c1cccnc1	·	1.1	·	4	0.73	3.7	·	·	·
Cc1cc2c(cc1C)NC(=O)CC(c1ccccc1)=N2	i	-0.1	·	-4	·	·	-6	-5	4.3
CC1(NC(=S)Nc2ccccc2)CCS(=O)(=O)C1 (stereo not drawn)	i	2.3	0	-1	0.69	1.4	5	-11	-3.6
O=C(COC(=O)c1c[nH]c2ccccc12)NCc1ccccc1	i	-0.9	·	·	·	·	7	16	-0.3
CN(C)S(=O)(=O)c1c(Cl)cccc1Cl	·	2.4	-1	10	0.71	2.5	·	·	·
CCOc1ccc(/C(O)=C2/C(=O)C(=O)N(c3ncccn3)C2c2ccc(Cl)cc2)cc1 (stereo not drawn)	i	0.8	?	-4	0.65	11	-32*	-3.8*	-1.6*
Cc1ccsc1/C=N/NC(=O)Cn1nc(C)c([N+](=O)[O-])c1C	i	1.9	9	-8	·	·	3	3	2.7
CC1CCCN(CCCOc2ccc([N+](=O)[O-])cc2)C1 (stereo not drawn)	i	4.6	-19	-9	0.73	9.5	·	·	·
C/C(=N/NC(=O)c1cc2ccccc2cc1O)C1C(=O)c2ccccc2C1=O	·	7.1	12	2	·	·	·	·	·
Cc1ccc(/C=N/n2cc(-c3ccccc3)[nH]c2=S)s1	·	3.4	?	-1	·	·	-8	17	-2.9
CCCCNC(=O)c1onc(CSc2cc(C)ccc2C)c1C(=O)O	i	1.5	9	-3	0.68	3.1	-40*	-31*	6.6*
CCOCCCNCc1cc(Cl)cc(Cl)c1OCC	i	4.7	-3	6	0.66	-7.3	9	9	0.3
Cc1onc(-c2c(Cl)cccc2Cl)c1C(O)c1ccccc1 (stereo not drawn)	i	1.6	-43	-2	0.69	-1.0	-7	-17	0.2

Source: PubChem BioAssay (several laboratories)

Only part of the results is shown. The share of hits here may be higher or lower than overall.
